# RN4220 kill: kills Staphylococcus aureus RN4220 | S. aureus RN4220 growth, OD600, 16 h | inhibition, % (concentration not given with the values) | actives 0.33% (n = 330,000);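 active = z-score of -3 or lower and OD600 up to 0.18 on both plates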;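 note: plate controls were untreated cells for no effect and reference antibiotic for full effect; stock transfer was 100 nL into about 80 µL; one replicate is shown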
# BJeLR viability: kills HRASV12-expressing BJeLR cells. BJeLR (HRASV12) viability, CellTiter-Glo ATP luminescence, 48 h; reference of the scale not given here. actives 0.17% (n = 300,000). AID 1554. inhibition, % (no concentration beside the values);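 active = replicate mean above 50%; inconclusive = above 50% but judged a plate artefact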;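 note: 50 nL library stock added to about 25 µL; numbers are from one replicate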
# Mtb hypoxia inh: Mtb hypoxia fluorescent reporter inhibition; AID 1159583; fluorescence inhibition, % (test concentration not listed); actives 0.1% (n = 300,000); M. tuberculosis hypoxia-regulated fluorescent reporter, fluorescence;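 active = 35 to 45% if threefold the growth effect, above 45% if 1.5-fold the growth effect; inactive = the rest, general growth blockers included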;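 note: wells of about 50 µL received 100 nL stock; 0% = vehicle wells and 100% = reference inhibitor wells; whole bacteria with a GFP reporter of the hypoxia response; strong numbers were not always called active; many hits fall short of the cut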
# Autofluor counter: counter-screen for toxin protease inhibitors: compound fluorescence; compound autofluorescence counterscreen, microsphere flow cytometry; active compounds read high; fluorescence intensity (test concentration not listed); actives 3.1% (n = 360,000); AID 624483;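 active = at least 3 SD above the mean of all compounds, about 16000 in these data; inconclusive = too few beads counted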;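 note: 100 nL of 1 mM stock went into each well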
# Sa ugtP lethal: kills S. aureus RN4220 lacking UgtP; growth inhibition, % (test concentration not listed); actives 0.54% (n = 330,000); S. aureus RN4220 ugtP deletion, OD600 growth, 16 h; some inactives read as strong as hits;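 active = z-score under -3 and OD600 up to 0.15 on both plates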;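 note: plate controls were untreated wells for no effect and antibiotic for full effect; wells of about 80 µL received 100 nL stock; the first replicate is given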
# PrP UTR inh: inhibition of PrP 5' UTR reporter expression; cell-based PrP 5' UTR mRNA reporter, plate reader; inhibition, % (concentration not given with the values); actives 0.35% (n = 340,000);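 active = every replicate at 50% or more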;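 note: 0 = median of the neutral control wells; tested in H4 reporter cells; numbers are from one replicate; inactives centre near -14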
# Mtb hypoxia inh growth: further read-out of Mtb hypoxia inh, marked with its call; growth inhibition, %; measured here: M. tuberculosis growth (absorbance);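 0% = vehicle and 100% = reference antibiotic; read after six days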
# Numbers without * were called inactive; ? = inconclusive; nt = not tested or not shown. Random draw from the library. About 4% of those tested had a hit in this group.
1. CC(Sc1nncs1)C(=O)NCc1ccc2c(c1)OCO2 (stereo not given)
2. CSCC[C@H](NC(=O)Nc1ccc(OC(F)(F)F)cc1)C(=O)O
3. Cc1ccccc1NC(=O)C(NC1CCCCC1)C(C)C (stereo not given)
4. CCOc1ccccc1N1CCN(C(=O)c2cc(C)oc2C)CC1
5. O=S(=O)(c1ccccc1)N1CCC2(CC1)OCCO2
6. CCCCC(C)n1[nH]c(=O)cc1N (stereo not given)

screen / no.	1	2	3	4	5	6
RN4220 kill	4.6	3.2	9.6	4.6	3.9	1.2
BJeLR viability	13	-7	-6	9	9	1
Mtb hypoxia inh	3	10	-6	4	8	-19
Mtb hypoxia inh growth	-1	6	5	6	0	-9
Autofluor counter	11034	5584	4529	10945	4868	3316
Sa ugtP lethal	4	8	5	2	0	-4
PrP UTR inh	-22	-10	-15	-14	-111	-17

7. N=C1C(c2nc3ccccc3[nH]2)=C(O)CN1NC(=O)c1c[nH]c2ccccc12
8. Cc1cccc(NC(=O)c2ccccc2SCc2ccc(F)cc2)n1
9. O=C(NCc1n[nH]c(=S)n1-c1ccc(Cl)c(Cl)c1)c1ccc(S(=O)(=O)N2CCOCC2)cc1
10. Cc1nn(C)cc1CNC(=O)c1cccc(Cl)c1
11. COc1ccc(NC(=S)N(CCCN2CCCC2)Cc2ccco2)cc1
12. CC1CCCCN1Cc1ccc(N(C)C)cc1 (stereo not given)

screen / no.	7	8	9	10	11	12
RN4220 kill	-1.8	15	0.0	-0.1	-1.7	0.6
BJeLR viability	3	nt	-1	-8	-3	8
Mtb hypoxia inh	-8	8	-1	5	12	17
Mtb hypoxia inh growth	31	6	5	13	12	4
Autofluor counter	8943	3294	2572	10896	3928	9806
Sa ugtP lethal	-7	5	11	-1	3	1
PrP UTR inh	-20	-12	-18	nt	-15	-21

# Among those listed so far, these contain a Cl atom:
9. O=C(NCc1n[nH]c(=S)n1-c1ccc(Cl)c(Cl)c1)c1ccc(S(=O)(=O)N2CCOCC2)cc1
10. Cc1nn(C)cc1CNC(=O)c1cccc(Cl)c1

screen / no.	9	10
RN4220 kill	0.0	-0.1
BJeLR viability	-1	-8
Mtb hypoxia inh	-1	5
Mtb hypoxia inh growth	5	13
Autofluor counter	2572	10896
Sa ugtP lethal	11	-1
PrP UTR inh	-18	nt

# The results go on:
13. Cc1ccccc1NC(=O)Cc1nc(COC(=O)c2cccc(C)c2O)cs1
14. Cc1cccc(OCCCC(=O)Nc2ccccc2C(F)(F)F)c1
15. COc1ccc(CCN(Cc2nc3ccccc3c(=O)[nH]2)C(=O)c2ccco2)cc1OC
16. CN(CC(=O)Nc1ccccc1Cl)C(=O)c1cccc(-n2cccc2)c1
17. COc1ccc(OCC(O)CN2C(=O)c3ccccc3C2=O)cc1 (stereo not given)
18. COc1cccc(COC(=O)C2CCN(C(=O)c3ccccc3C)CC2)c1OC

screen / no.	13	14	15	16	17	18
RN4220 kill	2.6	-0.2	1.5	-3.2	0.1	1.8
BJeLR viability	-3	2	5	11	-1	5
Mtb hypoxia inh	12	0	nt	-1	8	-4
Mtb hypoxia inh growth	-4	8	nt	1	9	14
Autofluor counter	6384	3908	2589	6867	3711	?
Sa ugtP lethal	5	4	4	-1	17	-1
PrP UTR inh	-22	-25	-16	-29	-44	-18

19. CCCCN1CCC2C=CCC(C(=O)Nc3ccccc3)C2C1=O (stereo not given)
20. CCCN1CCN(C(=O)c2oc3ccccc3c2NC(=O)C2CC2)CC1
21. Cc1cc(C)c(C#N)c(SCc2[nH]nc3c2C(c2ccccc2)C(C#N)=C(N)O3)n1 (stereo not given)
22. O=C(O)c1ccc(-n2nnnc2Oc2cccc3cccnc23)cc1
23. CCOP(=O)(OCC)C(Nc1cccc([N+](=O)[O-])c1)c1ccc(N(C)C)cc1 (stereo not given)
24. COC(=O)C1=C(C)N(c2ccc(Cl)cc2)/C(=C/c2ccc(O)cc2)C1=O

screen / no.	19	20	21	22	23	24
RN4220 kill	1.8	-1.8	7.2	1.4	5.3	48
BJeLR viability	nt	9	-8	nt	-4	-6
Mtb hypoxia inh	8	-10	-2	3	-2	-1
Mtb hypoxia inh growth	12	7	3	5	-4	-7
Autofluor counter	nt	5433	11106	7749	5806	4573
Sa ugtP lethal	-2	-1	-17	13	13	-3
PrP UTR inh	nt	-3	nt	-26	nt	-19

25. COc1ccccc1CNC(=O)c1c(-c2ccccc2Cl)noc1C
26. CCCc1c(OCCCCc2nn[nH]n2)ccc(C(C)=O)c1O
27. Cc1nc(N)sc1C(=O)N/N=C/c1cccnc1
28. O=C(c1ccc(Cl)cc1)N1CCC(c2nc(-c3cccs3)no2)CC1
29. Nc1ccc(C(=O)N/N=C\c2cc(N=Nc3cccc4ccccc34)ccc2O)cc1
30. CN1CCN(C2=CC3=CC(=C(C#N)C#N)CCC3CC2)CC1 (stereo not given)

screen / no.	25	26	27	28	29	30
RN4220 kill	4.0	16	nt	6.9	nt	1.9
BJeLR viability	3	10	8	-6	-3	nt
Mtb hypoxia inh	3	2	nt	0	nt	-274
Mtb hypoxia inh growth	-4	10	nt	-3	nt	2
Autofluor counter	3612	5757	4944	23989*	7889	17359*
Sa ugtP lethal	1	-13	nt	26	nt	13
PrP UTR inh	-13	-22	-15	-25	-16	-7

31. O=C(O)CCSc1nnc(COc2ccc(Cl)cc2)n1-c1ccccc1
32. O=C(CSc1nnc(-c2ccccc2Cl)o1)N1CCCCC1
33. CCN(c1ccc(OC)cc1)S(=O)(=O)N1CCCC(C(=O)NCc2ccccc2Br)C1 (stereo not given)
34. Cc1ccc(S(=O)(=O)N2CCN(C(=O)c3cc4c(s3)CCCC4)CC2)cc1
35. CCOc1ccc(/C=C(\C#N)C(=O)NC2CC2)c(OCC)c1
36. Cc1noc(N)c1C(=O)Nc1ccc(F)c(Cl)c1

screen / no.	31	32	33	34	35	36
RN4220 kill	-0.1	-0.8	2.6	4.4	3.2	2.0
BJeLR viability	-5	3	-8	nt	2	9
Mtb hypoxia inh	-2	nt	15	0	6	6
Mtb hypoxia inh growth	-7	nt	3	2	3	-1
Autofluor counter	3264	6089	5660	8178	5929	4931
Sa ugtP lethal	6	7	3	5	3	0
PrP UTR inh	-23	-56	4	-5	-20	-25

37. Cc1cc(C(=O)NNC(=O)Cc2ccc(Cl)c(Cl)c2)c(C)o1
38. O=S(=O)(Nc1ccc(Br)cn1)c1ccc2ccccc2c1
39. CC12CCC(=O)N1C(C(=O)N1CCN(S(=O)(=O)c3cccc(C(F)(F)F)c3)CC1)CS2 (stereo not given)
40. Fc1c(F)c(F)c(N=Cc2ccc3ncccc3c2)c(F)c1F
41. N#CC1=C(S)N(c2ccc(F)cc2)C(c2cccs2)NC1=O (stereo not given)
42. O=C(NC1CCCC1)C(c1ccncc1)N(C(=O)Cn1nnc(-c2ccccc2F)n1)c1cccc(F)c1 (stereo not given)

screen / no.	37	38	39	40	41	42
RN4220 kill	-0.1	17	nt	0.6	4.3	-4.9
BJeLR viability	nt	8	-1	1	nt	-10
Mtb hypoxia inh	1	-1	nt	4	-1	-1
Mtb hypoxia inh growth	2	-4	nt	4	-2	-3
Autofluor counter	5058	5373	5648	2645	8743	2875
Sa ugtP lethal	0	-27	nt	8	10	10
PrP UTR inh	-24	-12	0	-21	-37	-22

43. CCC(C)Nc1nc(-c2ccc3c(c2)NC(=O)CO3)cs1 (stereo not given)
44. CC(C)NC(=O)COc1ccccc1C#N
45. CC(C)N(Cc1ccccc1)CC(O)COc1ccc(S(=O)(=O)N2CCOCC2)cc1Cl (stereo not given)
46. CC(=O)N/C(=C\c1ccccc1)C(=O)OCC(=O)c1c(N)n(CC(C)C)c(=O)n(C)c1=O
47. O=C(Cc1ccccc1)NCC(=O)OCC(=O)c1ccccc1Cl
48. COC(=O)C1=C(C)N(c2ccc(F)cc2)C(=O)C1

screen / no.	43	44	45	46	47	48
RN4220 kill	-12	6.2	2.9	-0.9	5.4	0.1
BJeLR viability	-3	-7	-2	7	-11	-1
Mtb hypoxia inh	-2	11	7	-3	16	-11
Mtb hypoxia inh growth	-1	4	2	5	2	0
Autofluor counter	?	4480	4489	?	5222	10393
Sa ugtP lethal	-13	6	0	2	1	-3
PrP UTR inh	-27	-4	-13	-27	20	-23

49. COc1ccc(N2CCN(Cc3csc(C)c3-c3ccc(C)cc3)CC2)cc1
50. Cc1c(C(C)(C)C)sc(=NS(=O)(=O)c2ccccc2)n1C
51. CCN(CC)C(=O)COc1coc(CN2CCN(c3cccc(Cl)c3)CC2)cc1=O
52. Cc1ccc(NC(=O)CNCc2ccccc2)c(Br)c1
53. O=S(=O)(Nc1cccc2ccccc12)N1CCCC1
54. CC(=NOCC(=O)OCC(=O)N(C)c1ccccc1)c1ccc2c(c1)OCO2

screen / no.	49	50	51	52	53	54
RN4220 kill	1.1	7.2	0.2	-2.6	0.0	2.7
BJeLR viability	-3	nt	7	3	-5	nt
Mtb hypoxia inh	12	-3	12	-3	11	0
Mtb hypoxia inh growth	2	-2	0	-5	-4	3
Autofluor counter	3060	nt	5910	4532	8111	nt
Sa ugtP lethal	31	11	-4	-9	-4	8
PrP UTR inh	4	nt	0	-20	15	nt

55. Cc1cc(C(=O)NCc2cc(C(=O)O)oc2C)c(C)o1
56. O=C(COC(=O)C1CC2C=CC1C2)Nc1c(Br)cc([N+](=O)[O-])cc1Br (stereo not given)
57. CC[C@@H](C)[C@H](NC(=O)Cc1c(C)c2c(cc(C)c3c(C)c(C)oc32)oc1=O)C(=O)O
58. CCC1=C(OC(=O)N(CC)CC)N2C(=O)OC(=NCCOC)[C@]2(Cc2ccccc2)C2C1=CCC1C(=O)N(CC(=O)OC)C(=O)C12 (stereo not given in full)
59. CSc1cccc(NC(=S)NN(C)C)c1
60. COc1ccc(CCNC(=O)CN2c3cccc4cccc(c34)S2(=O)=O)cc1OC

screen / no.	55	56	57	58	59	60
RN4220 kill	0.7	13	8.1	3.2	3.2	2.6
BJeLR viability	-7	nt	1	nt	-3	-6
Mtb hypoxia inh	6	13	-1	1	13	-7
Mtb hypoxia inh growth	8	8	7	5	13	3
Autofluor counter	6944	3883	3639	nt	3398	3639
Sa ugtP lethal	13	6	6	1	4	-5
PrP UTR inh	-16	-19	-16	nt	-23	-3

61. CSc1ccc(C(c2c(O)c3ccccc3oc2=O)c2c(C)n(C)n(-c3ccccc3)c2=O)cc1 (stereo not given)
62. CCOc1ccccc1CNC(=O)Cn1ccc2cc(S(=O)(=O)N3CCCC3)ccc21
63. NC(=O)c1ccc(NC(=O)c2ccc3c(c2)CCN3S(=O)(=O)c2ccccc2)cc1
64. Cc1cccc(N2CCN(CC(=O)Nc3ccccc3[N+](=O)[O-])CC2)c1C
65. O=C(O)c1ccc(NC(=S)NCc2ccccc2)cc1
66. Cc1ccc(-c2cc(-c3ccccc3[N+](=O)[O-])[nH]n2)c(O)c1
67. CCN(CC(=O)NCc1ccc(F)cc1)C(=O)C1CC1C (stereo not given)

screen / no.	61	62	63	64	65	66	67
RN4220 kill	-2.7	-2.6	0.1	-0.5	1.8	-8.0	-1.3
BJeLR viability	-3	3	4	-2	9	-11	-13
Mtb hypoxia inh	-8	-8	-8	3	-1	0	5
Mtb hypoxia inh growth	3	-3	5	-5	9	4	11
Autofluor counter	4532	6200	4544	7165	4377	11165	4910
Sa ugtP lethal	1	0	-10	5	0	-9	12
PrP UTR inh	-15	-1	-3	-14	-8	-40	-5

# Structures shown so far that have an aryl methoxy group (8):
11. COc1ccc(NC(=S)N(CCCN2CCCC2)Cc2ccco2)cc1
15. COc1ccc(CCN(Cc2nc3ccccc3c(=O)[nH]2)C(=O)c2ccco2)cc1OC
17. COc1ccc(OCC(O)CN2C(=O)c3ccccc3C2=O)cc1 (stereo not given)
18. COc1cccc(COC(=O)C2CCN(C(=O)c3ccccc3C)CC2)c1OC
25. COc1ccccc1CNC(=O)c1c(-c2ccccc2Cl)noc1C
33. CCN(c1ccc(OC)cc1)S(=O)(=O)N1CCCC(C(=O)NCc2ccccc2Br)C1 (stereo not given)
49. COc1ccc(N2CCN(Cc3csc(C)c3-c3ccc(C)cc3)CC2)cc1
60. COc1ccc(CCNC(=O)CN2c3cccc4cccc(c34)S2(=O)=O)cc1OC

screen / no.	11	15	17	18	25	33	49	60
RN4220 kill	-1.7	1.5	0.1	1.8	4.0	2.6	1.1	2.6
BJeLR viability	-3	5	-1	5	3	-8	-3	-6
Mtb hypoxia inh	12	nt	8	-4	3	15	12	-7
Mtb hypoxia inh growth	12	nt	9	14	-4	3	2	3
Autofluor counter	3928	2589	3711	?	3612	5660	3060	3639
Sa ugtP lethal	3	4	17	-1	1	3	31	-5
PrP UTR inh	-15	-16	-44	-18	-13	4	4	-3

# Source: PubChem (several laboratories)
